Bead autofluor – flagged as autofluorescent in microsphere protease counterscreen; compound autofluorescence counterscreen, microsphere flow cytometry; stronger effect = higher value; fluorescence intensity (test concentration not listed); 360,000 compounds, 3.1% hits;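 active = at least 3 SD above the mean of all compounds, about 16000 in these data; inconclusive = too few beads counted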;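 note: 100 nL of 1 mM stock went into each well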
PrP UTR inh – inhibition of PrP 5' UTR reporter expression; cell-based PrP 5' UTR mRNA reporter, plate reader; AID 488862; inhibition, % (no concentration beside the values); 340,000 compounds, 0.35% hits;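 active = every replicate at 50% or more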;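 note: 0 = median of the neutral control wells; tested in H4 reporter cells; numbers are from one replicate; inactives centre near -14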
RN4220 kill – kills Staphylococcus aureus RN4220; 330,000 compounds, 0.33% hits; S. aureus RN4220 growth, OD600, 16 h; AID 1259311; inhibition, % (no concentration beside the values);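 active = z-score of -3 or lower and OD600 up to 0.18 on both plates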;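 note: plate controls were untreated cells for no effect and reference antibiotic for full effect; stock transfer was 100 nL into about 80 µL; one replicate is shown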
BJeLR viability – BJeLR cell viability loss; AID 1554; 300,000 compounds, 0.17% hits; BJeLR (HRASV12) viability, CellTiter-Glo ATP luminescence, 48 h; reference of the scale not given here; inhibition, % (no concentration beside the values);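 active = replicate mean above 50%; inconclusive = above 50% but judged a plate artefact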;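 note: 50 nL library stock added to about 25 µL; numbers are from one replicate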
Mtb hypoxia rep – inhibitors of hypoxia-regulated fluorescent reporter in Mycobacterium tuberculosis | M. tuberculosis hypoxia-regulated fluorescent reporter, fluorescence | fluorescence inhibition, % (test concentration not listed) | 300,000 compounds, 0.1% hits | AID 1159583;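 active = 35 to 45% if threefold the growth effect, above 45% if 1.5-fold the growth effect; inactive = the rest, general growth blockers included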;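 note: wells of about 50 µL received 100 nL stock; 0% = vehicle wells and 100% = reference inhibitor wells; whole bacteria with a GFP reporter of the hypoxia response; strong numbers were not always called active; many hits fall short of the cut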
Sa ugtP lethal – compounds lethal to S. aureus RN4220 ugtP deletion mutant. OD600 growth, 16 h; some inactives read as strong as hits. growth inhibition, % (no concentration beside the values). 330,000 compounds, 0.54% hits. AID 1259309;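 active = z-score under -3 and OD600 up to 0.15 on both plates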;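 note: plate controls were untreated wells for no effect and antibiotic for full effect; wells of about 80 µL received 100 nL stock; the first replicate is given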
Mtb hypoxia rep growth – further read-out of Mtb hypoxia rep, marked with its call; growth inhibition, %; measured here: M. tuberculosis growth (absorbance);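 0% = vehicle and 100% = reference antibiotic; read after six days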
Numbers without * were called inactive; ? = inconclusive; / = not tested or not shown.

SMILES	Bead autofluor	PrP UTR inh	RN4220 kill	BJeLR viability	Mtb hypoxia rep	Mtb hypoxia rep growth	Sa ugtP lethal
COCCNC(=O)CN(c1cccc(OC)c1)S(=O)(=O)c1ccc(C)cc1	3184	-14	4.1	-12	16	3	5
Cc1ccc(NC(=O)C(=O)Nc2ccc(C)cn2)nc1	2707	-35	5.9	8	-3	3	15
Cc1cc2nc(Cl)c(Cl)nc2cc1C	3803	-4	0.2	-7	3	2	13
C[C@@H]1C(c2cccc(Cl)c2)=NN(c2ccccc2)[C@H]1C(=O)N1CCOC1=O	4175	15	-6.6	/	2	11	50
O=C1c2ccccc2C(=O)N1CC(=O)N1c2ccccc2Sc2ccccc21	8825	-22	0.5	4	15	10	1
Cc1ccc(-n2c(SCC(=O)NCc3cccs3)nnc2-c2ccoc2C)cc1	4574	-3	-2.6	3	8	10	5
COc1ccc(N=Nc2ccc(N)nc2N)cc1	3152	-60	/	-8	/	/	/
CC(C)C[C@H](NC(=O)Nc1ccccc1F)C(=O)O	2978	-16	/	-7	/	/	/
CC1CC(C)CN(C(=O)c2cc(-c3ccccn3)nc3ccccc23)C1 (stereo unspecified)	4463	3	3.0	5	4	2	1
CSCCCNC(=S)N1CCN(S(=O)(=O)c2cccc(C(F)(F)F)c2)CC1	2203	-17	3.6	-3	9	4	5
O=C(Nc1nnc(S(=O)(=O)N2CCOCC2)s1)c1ccc(Cl)cc1	6440	-18	28	6	2	10	13
COc1ccc(N2CCN(C(=O)COC(=O)CNC(=O)c3ccccc3)CC2)cc1	5604	-15	-0.3	-10	6	11	0
CCn1c(=O)n(CC)c2cc(N3CCCC3)c(NC(=O)c3ccccc3C)cc21	5743	-19	-0.4	0	1	1	6
Cc1cc(C(=O)COC(=O)c2ccc[nH]c2=O)c(C)n1CCc1ccc(F)cc1	4257	-17	3.7	1	-7	3	-1
Cc1ccc(OCCNC(=O)CCNC(=O)c2ccc(Cl)cc2)cc1	8636	-16	-0.9	/	3	9	4
Cc1cccc(N=CC2=C(O)CC(C)(C)CC2=O)n1	/	/	2.4	/	11	3	2
O=C1OC(c2cccs2)=N/C1=C\c1ccc(-c2cccc(Cl)c2)o1	11705	-5	5.1	1	11	14	5
O=C(CCCCCCCCCCC(=O)NCc1cccnc1)NCc1cccnc1	3884	-61	2.1	74*	8	21	4
COc1ccc(-n2nc(C(=O)NCC(=O)N3CCN(c4ccccc4)CC3)c3ccccc3c2=O)cc1OC	3560	-9	1.1	-16	-5	3	1
CNC(=O)COC(=O)c1cc(-c2ccccc2)nn1-c1ccccc1	4509	-2	7.5	6	11	7	3
CCNC(=O)COC(=O)c1cc(S(=O)(=O)N2CCCCC2)ccc1C	4763	-2	4.9	-14	-1	8	5
COc1ccccc1/C=C/C(=O)NCC(=O)N/N=C/c1ccc2c(c1)OCO2	2682	-23	/	4	/	/	/
Cc1ccc2nc(Cl)c(-c3ccccc3)cc2c1	6546	/	8.7	8	8	1	9
O=C(CN1CCCCC1)N1CCCc2c1c(=O)oc1ccc(OCc3ccccc3)cc21	8684	-17	5.5	11	5	8	-5
CCn1ccnc1CN1CCN(CC=C(C)C)C(CCO)C1 (stereo unspecified)	2683	-7	8.1	-3	10	6	0
CCN(CC)S(=O)(=O)c1ccc2c(c1)c(=O)c(C(=O)NCCCN(C)c1ccccc1)cn2C	5793	-29	3.4	0	10	3	-5
Cc1c(C(=O)Nc2ccc(F)cc2)oc2ccc(S(=O)(=O)N3CCC4(CC3)OCCO4)cc12	21736*	-12	2.7	1	-12	7	-16
CSc1ccc(S(=O)(=O)N2CCC(C(=O)Nc3cccnc3)CC2)cc1	2910	-11	-0.1	0	-15	-6	-4
NC(=O)c1oc2ccccc2c1NC(=O)c1ccc([N+](=O)[O-])o1	4515	45	100*	-8	/	/	100*
COc1ccc(CN2CCNC(=O)C2CC(=O)NC2CCCC2)cc1OC (stereo unspecified)	6383	-7	0.7	-5	-8	-2	6
O=C(NCCCN1CCCC1=O)C1CCN(S(=O)(=O)c2ccc(Cl)cc2)CC1	3865	-36	-1.6	/	8	5	4
CCOC(=O)c1ccccc1NS(=O)(=O)c1cnn(CC)c1C	3963	-13	2.7	-29	2	-10	3
O=C(CCc1ccccc1Cl)Nc1ccc(S(=O)(=O)N2CCOCC2)cc1	4934	-12	-1.5	-6	-3	-7	9
CCCCOC(=O)c1ccc(NC(=O)c2ocnc2C)cc1	24702*	-23	1.7	-9	1	13	-5
CCCCC[C@H]1CN(C2CCCCC2)C(=O)[C@@H]1CC(=O)NCc1ccc(OC)cc1	3703	-17	/	-8	/	/	/
CC(NC(=O)OC(C)(C)C)C(=O)Oc1cc2oc(=O)cc(-c3ccccc3)c2cc1Cl (stereo unspecified)	5040	-6	/	11	/	/	/
O=C(CCN1C(=O)/C(=C/c2cccs2)SC1=S)Nc1ccc(C(=O)O)cc1	4971	20	/	-6	/	/	/
CC(C)(C)S(=O)(=O)Cc1nc(-c2ccc(Cl)c(Cl)c2)cs1	4676	-26	5.1	2	10	1	6
COc1ccccc1CCC(=O)NNC(=O)c1ccncc1	/	-20	0.2	4	-4	-1	3
COc1ccc(-c2cc(C3CCN(c4cc(Cl)nc(N)n4)CC3)[nH]n2)cc1	?	5	-7.0	9	1	6	95*
CC(Oc1ccccc1Cl)C(=O)N1CCCN(C)CC1 (stereo unspecified)	5717	-19	/	-14	/	/	/
Cc1ccc2nc(NC(=O)COC(=O)c3ccccn3)sc2c1	3671	-72	-3.3	-7	8	-6	0
CCOc1ccc(NC(=O)C2CCN(S(=O)(=O)c3ccc4c(c3)NC(=O)C(C)S4)CC2)cc1 (stereo unspecified)	5329	-10	2.0	-9	-5	-2	0
COc1ccccc1CN(C)C(=O)c1ccc2c(c1)NC(=O)CS2	/	-1	-3.5	-6	/	/	1
COc1cccc(C(=O)N(c2ccc(OC)cc2OC)C2C=CS(=O)(=O)C2)c1 (stereo unspecified)	5119	-2	1.5	21	5	-1	7
CO/N=C(/CN1CCCCC1)c1ccc(Cl)cc1	3461	-31	/	3	/	/	/
Cc1ccc(N2CC(NC(=O)C(=O)c3c(C)[nH]c4ccccc34)CC2=O)cc1 (stereo unspecified)	?	-10	4.5	-1	6	5	3
COC(=O)c1ccccc1NC(=O)c1ccccc1NS(C)(=O)=O	6079	-19	3.4	4	12	4	11
COc1ccc(S(=O)(=O)N2CCOC2CNC(=O)C(=O)NCc2ccncc2)cc1 (stereo unspecified)	5489	-16	1.9	-2	-1	2	10
O=C(COC(=O)CCN1C(=O)c2cccc([N+](=O)[O-])c2C1=O)NC1CCS(=O)(=O)C1 (stereo unspecified)	3177	-43	2.7	-4	3	-5	2
O=C(O)CCC(=O)Nc1ccc(/C=C/C(=O)C2CC2)cc1	4687	-30	8.0	5	-6	0	6
Cc1cc(S(=O)(=O)NCc2ccccc2)ccc1OCC(=O)Nc1cccc([N+](=O)[O-])c1	10947	-22	/	1	/	/	/
CN(CC1CCCN(CCc2cccc(C(F)(F)F)c2)C1)C(=O)c1cc2ccccc2o1 (stereo unspecified)	6021	-9	5.0	-5	-9	-1	2
Cc1coc2c(C)c3oc(=O)c(CCC(=O)NCCCn4ccnc4)c(C)c3cc12	4971	-30	4.4	3	/	/	7
O=C(COc1ccc(S(=O)(=O)N2CCCC2)cc1)NCc1cccnc1	3486	-17	5.9	13	15	3	-6
Cc1ccc(NS(=O)(=O)c2cc(Br)cnc2N)c(Cl)c1	5775	-17	14	11	4	3	-8
Cc1ccc(C(=O)NNC(=O)CSc2nnc3c(n2)[nH]c2ccc(F)cc23)cc1	9867	-20	7.1	-5	5	4	0
Cc1nc(=O)c(-c2ccccc2)c(C)n1-c1ccc(C(=O)O)cc1	22979*	-21	6.6	11	10	10	0
COc1ccccc1CCNC(=O)c1cnn2c(C(F)F)cc(C)nc12	5978	-11	2.5	-11	6	4	16
Cn1cccc1CC(=O)NNC(=O)Nc1ccc(Cl)cc1	2602	-2	-0.2	2	0	10	-6

Given in markdown: entries from further up.
| mol | Bead autofluor | PrP UTR inh | RN4220 kill | BJeLR viability | Mtb hypoxia rep | Mtb hypoxia rep growth | Sa ugtP lethal |
| --- | --- | --- | --- | --- | --- | --- | --- |
| CC1CC(C)CN(C(=O)c2cc(-c3ccccn3)nc3ccccc23)C1 (stereo unspecified) | 4463 | 3 | 3.0 | 5 | 4 | 2 | 1 |
| CSCCCNC(=S)N1CCN(S(=O)(=O)c2cccc(C(F)(F)F)c2)CC1 | 2203 | -17 | 3.6 | -3 | 9 | 4 | 5 |
| O=C(Nc1nnc(S(=O)(=O)N2CCOCC2)s1)c1ccc(Cl)cc1 | 6440 | -18 | 28 | 6 | 2 | 10 | 13 |
| COc1ccc(N2CCN(C(=O)COC(=O)CNC(=O)c3ccccc3)CC2)cc1 | 5604 | -15 | -0.3 | -10 | 6 | 11 | 0 |
| CCn1c(=O)n(CC)c2cc(N3CCCC3)c(NC(=O)c3ccccc3C)cc21 | 5743 | -19 | -0.4 | 0 | 1 | 1 | 6 |
| Cc1cc(C(=O)COC(=O)c2ccc[nH]c2=O)c(C)n1CCc1ccc(F)cc1 | 4257 | -17 | 3.7 | 1 | -7 | 3 | -1 |
| Cc1ccc(OCCNC(=O)CCNC(=O)c2ccc(Cl)cc2)cc1 | 8636 | -16 | -0.9 | / | 3 | 9 | 4 |
| Cc1cccc(N=CC2=C(O)CC(C)(C)CC2=O)n1 | / | / | 2.4 | / | 11 | 3 | 2 |
| O=C1OC(c2cccs2)=N/C1=C\c1ccc(-c2cccc(Cl)c2)o1 | 11705 | -5 | 5.1 | 1 | 11 | 14 | 5 |
| O=C(CCCCCCCCCCC(=O)NCc1cccnc1)NCc1cccnc1 | 3884 | -61 | 2.1 | 74* | 8 | 21 | 4 |
| COc1ccc(-n2nc(C(=O)NCC(=O)N3CCN(c4ccccc4)CC3)c3ccccc3c2=O)cc1OC | 3560 | -9 | 1.1 | -16 | -5 | 3 | 1 |
| CNC(=O)COC(=O)c1cc(-c2ccccc2)nn1-c1ccccc1 | 4509 | -2 | 7.5 | 6 | 11 | 7 | 3 |
| CCNC(=O)COC(=O)c1cc(S(=O)(=O)N2CCCCC2)ccc1C | 4763 | -2 | 4.9 | -14 | -1 | 8 | 5 |

The results go on.
SMILES	Bead autofluor	PrP UTR inh	RN4220 kill	BJeLR viability	Mtb hypoxia rep	Mtb hypoxia rep growth	Sa ugtP lethal
COc1ccc(N(CC(=O)NCCSc2ccccn2)S(=O)(=O)c2ccc(C)cc2)cc1OC	3158	-16	-1.5	-5	4	-8	10
CCCCOP(=O)(c1ccc(N(C)C)cc1)C(O)c1cc(OC)ccc1OC (stereo unspecified)	3937	18	2.9	-6	-5	2	-1
COC(=O)CN1C(=O)[C@H]2[C@@H](c3ccc(C)o3)N3C(=O)CN(CC4CC4)C(=O)[C@@]3(C)[C@H]2C1=O	3465	-16	/	14	/	/	/
Cn1c(NC(=O)c2cccc(C(F)(F)F)c2)cc(=O)n(C)c1=O	6305	-7	1.5	1	4	3	9
CC(C)Cn1cnc2c1c(=O)[nH]c(=O)n2Cc1ccccc1	3551	-18	0.4	-11	7	2	9
CC(=O)Nc1cc2c3c(c1)CC(=O)N3CCC2	4041	-8	3.0	5	14	4	10
CC1CN(CC(=NO)C23CC4CC(CC(C4)C2)C3)CC(C)O1 (stereo unspecified)	/	/	4.3	/	16	3	3
O=C(CSc1cccc[n+]1[O-])c1ccc(Cl)s1	3147	-15	15	2	15	20	2
Cc1ccc(-n2c(SCC(=O)NCCC3=CCCCC3)nc3n[nH]c(C)c3c2=N)cc1Cl	5746	-5	/	11	/	/	/
CCOC(=O)c1c(NC(=S)Nc2ccc(OCC)cc2)sc2c1CCN(C)C2	5339	-19	3.0	-4	/	/	5
Cc1cccc(C)c1NC(=O)CN1C(=O)C2CC=CCC2C1=O (stereo unspecified)	3973	-22	0.8	/	9	6	-1
COC(=O)c1cc(S(=O)(=O)Nc2cc(S(=O)(=O)N(C)C)ccc2C)oc1C	6019	-18	8.4	2	12	-1	9
CC1(C)Cc2c(sc3ncnc(NNC(=S)NCc4ccccc4)c23)CO1	2221	-19	4.9	-2	12	1	1
O=C(NC1CCCCC1)N1CCC(c2nc3ccccc3[nH]2)CC1	22032*	-16	1.9	-3	5	13	2
COc1cc(CCC(=O)OCC(=O)Nc2ccccc2C#N)cc(OC)c1OC	2088	-3	3.5	-2	7	1	11
O=C(O)CCCC(=O)NNc1ncnc2ccccc12	2018	-8	3.0	19	4	7	3
Cc1nc(SCc2cccc(C(=O)O)c2)nc2c1CCCC2	3434	21	6.4	1	0	6	1
C=CCNC(=S)NNC(=O)c1cccc2ccccc12	21284*	-36	7.2	-23	12	19	-9
Cc1cc(N/N=C/c2ccncc2)nc2ccccc12	3664	-69	/	-3	/	/	/
